Bioassay records as filed in PubChem.
gsp agonist = gsp mutant agonism | 340,000 tested, 0.13% active | Potency, µM (titrated, usually from 76.9 µM), for the others: at the top dose activation (cAMP increase), most hits filed as activators | AID 624287 | gsp mutant cells, cAMP HTRF, 30 min; control for the full effect not named in the record; active = well fitted activation curve with a large enough effect; inconclusive = small, poorly fitted or top-dose-only effect, or another doubt; inactive = no such curve, though single readings can be large or run the other way; cell line not stated here;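 further: phosphodiesterase inhibitor Ro 20-1724 added with compounds to block cAMP breakdown; potency means the concentration at half of the fitted maximal effect; nearly all actives have a fitted effect of over 60% in size; about a fifth of the inactives were tested at one dose only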
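Cells in DMEM/10% FBS with G418 were pretreated with compounds in DMSO plus […] (300 uM stock) for 30 min at 37C. cAMP was measured by HTRF (cAMP-d2 plus anti-cAMP antibody-K) after 30 min at room temperature.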
ClpP mod = qHTS Assay for Activators of ClpP; ATP-dependent Clp protease proteolytic subunit (Bacillus subtilis (strain 168)), P80244; purified B. subtilis ClpP, FRET peptide cleavage, 20 min; 340,000 tested, 1.9% active; Potency, µM (doses to about 57.5 µM), without a hit: at the top dose activity change, negative = active; AID 651965, 2013; active = well fitted falling curve with a large enough effect; inconclusive = small, poorly fitted or top-dose-only effect; inactive = no such curve, though single readings can be large or run the other way; further: potency means the concentration at half of the fitted maximal effect; the source files actives as falling curves though it sought activators and does not explain the sign; nearly all actives have a fitted effect of over 65% in size; many hits overshoot -100%
Target sequence (P80244 whole entry, looked up): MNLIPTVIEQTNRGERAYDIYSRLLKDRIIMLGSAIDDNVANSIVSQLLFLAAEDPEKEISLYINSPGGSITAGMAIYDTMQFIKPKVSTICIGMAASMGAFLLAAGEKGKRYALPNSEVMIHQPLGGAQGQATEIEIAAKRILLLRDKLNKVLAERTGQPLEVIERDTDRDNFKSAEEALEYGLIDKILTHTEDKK
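ClpP 10 microg/mL final, pH 8 Tris/KCl buffer with BSA, glycerol, Tween-20; compound pinned in; FRET-FV substrate; RT 20 min; Ex320/Em430; ΔFRET vs ADEP 5.8 microM, DMSO, no enzyme.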
TRPV1 PAM = potentiators of human vanilloid receptor 1 (TRPV1). Q8NER1. potentiation, % at 8.33 µM. TRPV1-expressing cells, Fluo-8 calcium influx, capsaicin EC20 potentiation; host cell line not named in the record; control for the full effect not named in the record. AID 540277. 320,000 tested, 0.02% active; active means potentiation above 80%; inconclusive means 30% to 80%; inactive means below 30%; further: 0% is about no effect
Target sequence (Q8NER1 whole entry, looked up): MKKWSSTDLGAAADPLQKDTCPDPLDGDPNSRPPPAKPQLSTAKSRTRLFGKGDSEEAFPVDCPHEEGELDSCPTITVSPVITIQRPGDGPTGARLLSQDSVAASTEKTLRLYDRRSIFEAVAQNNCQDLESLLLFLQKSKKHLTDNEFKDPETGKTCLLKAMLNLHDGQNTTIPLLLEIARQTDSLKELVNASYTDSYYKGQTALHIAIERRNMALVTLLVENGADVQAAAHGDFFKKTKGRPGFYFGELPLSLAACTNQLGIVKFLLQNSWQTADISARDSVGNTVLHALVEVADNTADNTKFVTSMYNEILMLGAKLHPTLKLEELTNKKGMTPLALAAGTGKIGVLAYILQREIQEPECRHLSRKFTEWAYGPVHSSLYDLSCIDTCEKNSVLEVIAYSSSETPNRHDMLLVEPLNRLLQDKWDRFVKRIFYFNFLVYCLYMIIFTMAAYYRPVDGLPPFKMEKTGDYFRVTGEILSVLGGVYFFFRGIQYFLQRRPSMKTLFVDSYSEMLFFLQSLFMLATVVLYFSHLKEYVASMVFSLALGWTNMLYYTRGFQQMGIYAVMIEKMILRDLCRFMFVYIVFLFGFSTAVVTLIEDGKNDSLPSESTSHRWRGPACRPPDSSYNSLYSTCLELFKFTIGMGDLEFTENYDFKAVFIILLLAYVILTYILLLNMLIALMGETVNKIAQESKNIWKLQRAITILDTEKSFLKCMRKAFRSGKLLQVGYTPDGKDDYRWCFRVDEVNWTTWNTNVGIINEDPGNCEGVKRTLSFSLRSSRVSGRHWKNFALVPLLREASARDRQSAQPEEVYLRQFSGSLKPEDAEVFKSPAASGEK
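Cells expressing TRPV1 were dye-loaded with Fluo-8 and read kinetically: 10 s baseline, 3 min after compound (agonist portion), then 2 min after EC20 capsaicin (allosteric enhancer portion). Calcium-bound dye fluorescence at 480/520 nm.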
TRPML1 blocker = inhibitors of human TRPML1 channel; activity change, negative = inhibition, % (test concentration not listed); 390,000 tested, 0.02% active; TRPML1-inducible cells, Ca2+ dye fluorescence, FDSS; active compounds read low; inhibition of EC80 agonist-evoked calcium signal; AID 624415; Q9GZU1; in the data active means activity change below about -50%; inconclusive means about -30% to -50%; inactive means above about -30%;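 further: stimulus is agonist 54-4 at its EC80 concentration; on the % scale 0 is the no-effect control and ±100 the full control effect; compound concentration not given in the record; the text of the record puts the active cut at -80%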
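Tet-induced TRPML1-DL cells loaded with Ca8 no-wash calcium dye were read kinetically on FDSS. Compound addition was followed by EC80 agonist 54-4 (4 uM final); inhibition was read over 110 s.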
gsp antag = antagonists of gsp mutant (McCune-Albright syndrome); gsp-mutant cells, cAMP HTRF, 30 min; control for the full effect not named in the record; Potency, µM (doses to about 76.9 µM), for inactives: at the highest dose activity change, negative = inhibition, most hits filed as inhibitors; 340,000 tested, 0.4% active; AID 624288; active = falling curve of any shape with a large fitted effect; inconclusive = falling curve, mostly with a smaller effect; inactive = flat or rising curve; cell line not stated here;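 further: intracellular cAMP measured with PDE inhibitor Ro 20-1724 present during compound exposure; potency means the concentration at half of the fitted maximal effect; on the % scale 0 is the no-effect control and ±100 the full control effect; nearly all actives have a fitted effect of over 65% in size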
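Measurement of cellular cAMP by homogeneous time-resolved fluorescence following a 30 min compound exposure at 37C. The PDE inhibitor […] was present throughout; the assay buffer was DPBS with 0.05% BSA and 0.005% Tween 20.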
Sfp inh = Sfp phosphopantetheinyl transferase inhibition; Q9F4F7; 310,000 tested, 3.5% active; Potency, µM, for inactives: max response, negative = inhibition, hits mostly inhibitors; Biochemical Sfp PPTase activity, qHTS; active means well fitted inhibition curve with a large enough effect; inconclusive means small, poorly fitted or top-dose-only effect, or another doubt; inactive means no such curve, though single readings can be large or run the other way;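 further: the enzyme is Sfp with the accession as filed and its product quenches rhodamine fluorescence; potency means the concentration at half of the fitted maximal effect; 0% = enzyme reaction without inhibitor and -100% = no enzyme wells; top concentration of the series not given in the record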
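Buffer: 50 mM Hepes-Na pH 7.6, 10 mM MgCl2, 0.01% Nonidet P-40, 0.01% BSA. Enzyme 15 nM, pre-exposed to compound 15 min; substrates then added and fluorescence change tracked over 30 min.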
Menin MLL FP FL = displaces fluorescein MLL peptide from human menin; Fluorescence polarization, fluorescein-MLL peptide displacement from menin; FP activity change, % at 61.4 µM; 290,000 tested, under 10 active; inconclusive = falling polarisation curve, or a change in total fluorescence; inactive = total fluorescence flat and polarisation flat or rising; no compound was filed as active; the % refers to the polarisation; negative = inhibition;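 further: % of control where 0% means no effect; inhibitors lower the polarisation; unlabelled MLL peptide was the positive control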
* = called active by the depositor; i = inactive; u = inconclusive; x = not tested or not shown; [ ] = another dose, or the depositor's remark.

Results follow in this order: gsp agonist, ClpP mod, TRPV1 PAM, TRPML1 blocker, gsp antag, Sfp inh, Menin MLL FP FL
- CCOc1ccc(/C=C/C(=O)N(C)CC(=O)Nc2cccc(F)c2)cc1OCC
 : -6%, 3.9%, -11, 3, 5%, x, x
- CCCC(c1nnnn1C1CCCCC1)N1CCN(C(=O)c2ccco2)CC1 (centres undefined)
 : 15%[15.4 µM], x, 5, -7, x, -4%, -3.8
- COc1cc2c(cc1OC)C1OC(c3ccsc3)(C2)Oc2cc(C)oc(=O)c21 (centres undefined)
 : x, x, i, x, x, -7%, 17[11.7 µM]
- CN1CCN(C(=O)N(c2ccccc2)c2ccccc2)CC1
 : u, x, x, -15, 10%, x, x
- O=C(CN1C(=O)C2(OCCO2)c2cc(Br)ccc21)NO
 : -1%[15.4 µM], 0.6%, x, -2, 19%, x, x
- CCOC(=O)C1=C2N(C)c3ccccc3N2CCC1=O
 : 6%, 0.5%, 0, 8, 0%, 17%, -1.4
- Cc1[nH]c2ccc3ccccc3c2c(=O)c1C/C=C/Cl
 : 10%[15.4 µM], -1.6%, -3, -2, -21%, 11%, 1.2
- CC1(C)C(=S)N(Cc2ccccc2)c2ccccc21
 : -3%, 0.6%, 15, x, -10%, 3%, -0.7
- CCOc1ccc(C(=O)OCC(=O)Nc2ccc(SC(F)F)cc2)cc1OCC
 : u, -6.9%, -3, -18, 5%, 2%, 4.9
- OCCOCCn1c(CCNc2nc(-c3ccc(Cl)cc3)cs2)nc2cc(Cl)c(Cl)cc21
 : x, -0.1%, x, 13, -16%, x, x
- Cc1ccc(-c2nc3c(c(SCC(=O)N4CCOCC4)n2)Cc2c(CO)cnc(C)c2O3)cc1
 : -2%, -0.2%, -3, 7, u, 3%, 0.6
- COc1ccc(C2OC(=O)CC2C(=O)NCc2ccc(C)cc2)cc1OC (centres undefined)
 : 14%, -0.1%, 0, 11, 5%, 7%, 2.8
- COc1ccc(OCC(=O)Nc2ccc3c(c2)nc(CN2CCN(C(C)=O)CC2)n3C)cc1
 : -8%[15.4 µM], u, 1, -3, 8%, 14%, 4.9
- COc1ccccc1N1CCN(CCCCN2C(=O)C3CCCN3C2=O)CC1 (centres undefined)
 : -23%, x, x, 6, 2%, x, x
- Cc1cccc(OCc2nnc(SCC(=O)N3CCN(c4ccccc4)CC3)o2)c1C
 : -6%, -1.1%, 16, 0, -38%, 9%, -1.1
- CCOC(=O)C1CCN(C(=O)c2ccccc2NC(=O)C2=C(C)OCCS2)CC1
 : u, -0.6%, 0, -11, 9%, 9%, x
- Cc1ccc(C)c(N2CCN(c3ncccc3[N+](=O)[O-])CC2)c1
 : -3%, x, 1, 31, -18%, -3%, -3.3
- O=C(CCCCn1c(=O)[nH]c2ccccc2c1=O)NCCC1=CCCCC1
 : -37%[inhibitor], -12%, -9, 8, -6%, -18%, 1.2
- COc1c(S(=O)(=O)N2CCCC2)ccc(Cl)c1Cl
 : -37%[inhibitor], 0.4%, -1, -9, 5%[15.4 µM], 10%, 3.8
- Cc1ccccc1COn1nnc2ccc(S(=O)(=O)N3CCOCC3)cc21
 : 8%[15.4 µM], -1.8%, -7, -7, 2%, x, x
- CCOc1ccc(NC(=S)NN(C)C(=S)Nc2ccc(OCC)cc2)cc1
 : 18%, -0.5%, -2, 8, -5%, -8%, 1.2
- Cc1ccc2nsnc2c1S(=O)(=O)N1CCCC1
 : -31%[inhibitor], -1.0%, -19, 15, -1%, 6%, -2.5
- Cc1c(C(=O)NCCCN2CCCC2=O)oc2ccc(S(=O)(=O)N3CCOCC3)cc12
 : -4%, -1.3%, -2, 19, 13%, 3%, 2.6
- Cc1noc(C)c1C(=O)Nc1nc(-c2ccccc2Cl)cs1
 : -7%, 2.3%, 4, 2, -10%, 6%, 4.1
- CCOC(=O)C1(CC2CCCCO2)CCN(S(=O)(=O)c2ccc(OC)cc2)CC1 (centres undefined)
 : 0%, 1.9%, -14, 17, 11%, 3%, -1.9
- CCCC[C@@H]1C[C@H]1[C@@H](NC(=O)c1ccccc1)c1ccccc1C(F)(F)F
 : x, -0.9%, -5, 7, -12%, 4%, 0.3
- CCOC(=O)CNC(=O)C1CCCc2c1[nH]c1ccc(Cl)cc21 (centres undefined)
 : -2%[15.4 µM], x, -22, 0, -1%, -6%, -0.6
- CCc1nc(N)c(C#N)c(-c2cccn2C)c1C
 : -12%, -22%, x, 37, 0%, x, x
- Cc1ccc(CNC(=O)CSc2nnc(CNC(=O)c3ccccc3)o2)cc1
 : 1%, -1.4%, -4, 0, 8%, 12%, -10
- COc1ccc(CCC(=O)OCc2csc(CC(=O)Nc3ccc(C)cc3)n2)cc1OC
 : 7%[15.4 µM], 1.1%, x, 30, -10%, x, x
- Cn1c(CC(=O)NNC(=O)c2ccccc2[N+](=O)[O-])nc2ccccc21
 : -11%, -1.3%, 5, 40, -3%, x, x
- COc1ccc(CCNC(=O)c2ccc(Cl)cc2)cc1
 : -3%, 1.3%, -3, -6, 2%, 17%, -1.8
- Cc1cc(C(C)(C)C)nc2[nH]n(-c3ccccc3)c(=O)c12
 : -5%, 3.9%, -22, -1, u, 6%, 0.2
- COC1CCCN(C(=O)c2ccc3oc(Cc4ccc(Cl)cc4)nc3c2)C1 (centres undefined)
 : 4%, 0.5%, -3, 21, -1%, 14%, x
- Cc1cc(-c2nnc(CCC(=O)NC(C)c3cccc4ccccc34)o2)no1 (centres undefined)
 : 29%, -1.4%, 3, x, 5%, 18%, -1.4
- CC(C)(C)c1ccccc1N=Cc1ccc2ccccc2n1
 : -1%, -3.8%, 3, -4, 6%, -3%, 7.8
- COc1ccc(CCNC(=O)c2cc(C3CC3)nc3c2cnn3C(C)C)cc1
 : -43%[inhibitor], -12%, 7, 14, u, x, x
- Cc1cccc(C(C(=O)NC2CCCC2)N(Cc2cccnc2)C(=O)c2csnn2)c1 (centres undefined)
 : 22%, x, 10, -24, -7%, 11%, 0.5
- COc1ccc(S(=O)(=O)Cc2ccc(C(=O)N3CCN(c4ncccn4)CC3)o2)cc1
 : -19%, -11%, x, -15, -16%, x, x
- C/C(=N\Nc1cc(N2CCOCC2)ncn1)c1ccc(O)cc1
 : 2%[15.4 µM], -0.2%, -3, -4, 5%, 1%, -1.8

Arranged by molar mass (ascending): 4 of the compounds above
Results follow in this order: gsp agonist, ClpP mod, TRPV1 PAM, TRPML1 blocker, gsp antag, Sfp inh, Menin MLL FP FL
- CN1CCN(C(=O)N(c2ccccc2)c2ccccc2)CC1
 : u, x, x, -15, 10%, x, x
- Cc1noc(C)c1C(=O)Nc1nc(-c2ccccc2Cl)cs1
 : -7%, 2.3%, 4, 2, -10%, 6%, 4.1
- CCCC(c1nnnn1C1CCCCC1)N1CCN(C(=O)c2ccco2)CC1 (centres undefined)
 : 15%[15.4 µM], x, 5, -7, x, -4%, -3.8
- COc1cc2c(cc1OC)C1OC(c3ccsc3)(C2)Oc2cc(C)oc(=O)c21 (centres undefined)
 : x, x, i, x, x, -7%, 17[11.7 µM]

The list continues:
Results follow in this order: gsp agonist, ClpP mod, TRPV1 PAM, TRPML1 blocker, gsp antag, Sfp inh, Menin MLL FP FL
- Cc1occc1C(=O)Nc1ccc2c(c1)CCC2
 : -29%, 0.7%, -17, 0, -7%, 7%, 6.8
- COc1ccc(-n2c(CN3CCN(c4ccccc4)CC3)nc3ccc([N+](=O)[O-])cc3c2=O)c(OC)c1
 : 4%, x, -1, -7, 4%, -18%, 1.6
- CC(NC(=O)c1ccc(Cl)cc1)C1CC2CCC1C2 (centres undefined)
 : -44%[inhibitor], x, -19, 4, -5%, 12%, 0.1
- Cc1c(N(C(=O)CNC(=O)c2ccccc2)C2(C(=O)NC3CCCC3)CCCCC2)c(=O)n(-c2ccccc2)n1C
 : 3%[15.4 µM], x, -5, -9, -3%, 23%, 0.5
- CC(Sc1ccc(Cl)cc1)C(=O)NNC(=O)c1ccco1 (centres undefined)
 : 7%[15.4 µM], 0.5%, x, 10, -8%, x, x
- Cc1cc(C)n2nc(Cc3ccccc3)nc2n1
 : -61%[inhibitor], 0.6%, 8, 3, 25%, 23%, -0.9
- C=CCn1c(C)nc2c(sc3nc4c(cc32)COC(C)(C)C4)c1=O
 : -5%, x, u, -18, -5%, -14%, -2.2
- COC(=O)c1ccc2c(c1)NC(=O)C1CCCN21 (centres undefined)
 : -8%, -14%, x, 3, -6%, x, x
- O=C(CCCN1C(=O)/C(=C/c2ccccc2Cl)SC1=S)NNC(=O)c1ccc(Cl)cc1
 : -11%, 2.1%, 9, x, -2%, -17%, 24
- CN(CC(=O)N(C)CC(=O)Nc1c(Cl)cccc1Cl)Cc1ccc(Br)s1
 : 0%, -0.1%, -1, 26, 5%, x, x
- CC1CN(C(=O)CCC(=O)NCc2ccc(Cl)cc2)c2ccccc2O1 (centres undefined)
 : -26%, -0.7%, u, 0, 5%, 0%, -0.5
- CC(=O)N1CCN(C(=O)CCc2nc3ccccc3c(=O)[nH]2)CC1
 : -37%, 1.2%, -1, 5, 5%, -4%, -0.5
- Cc1ccc(S(=O)(=O)N2c3ccc(S(N)(=O)=O)cc3CC2C)cc1 (centres undefined)
 : -3%, x, 14, 8, 5%, -5%, 5.1
- Cc1nc(C)n(CCNC(=O)c2ccco2)n1
 : -1%, 0.1%, -6, 5, 9%, 21%, 2.5
- Cc1ccc(SCc2nc(-c3ccncc3)no2)cc1
 : 11%, 0.8%, 2, 10, -13%, 10%, -1.7
- COc1ccc(OC)c(CCNC(=O)c2cccc(NC3=NC4CS(=O)(=O)CC4S3)c2)c1 (centres undefined)
 : -1%, 0.2%, -9, 12, -4%, 12%, -4.3
- Clc1ccc(CSc2ncnc3c2ncn3C2CCCCO2)cc1 (centres undefined)
 : 1%, x, x, 7, 5%, x, x
- C=CCN1CC(O)=C(c2nc3ccccc3[nH]2)C1=N
 : -7%, x, -7, 1, -7%, -9%, -2.3
- COc1ccccc1CN1C(=NC(=O)C2CCCCC2)SC2CS(=O)(=O)CC21 (centres undefined)
 : 24%, 1.1%, -10, 15, 5%, 11%, -1.0

Rows are unselected; overall some 4.9% were active at least once.
